Assay outcomes from PubChem BioAssay.
RN4220 kill: S. aureus RN4220 growth inhibition; OD600, 16 h; 330,000 compounds, 0.33% hits; inhibition, % (test concentration not listed);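 active = z-score of -3 or lower and OD600 up to 0.18 on both plates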;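 also: plate controls were untreated cells for no effect and reference antibiotic for full effect; stock transfer was 100 nL into about 80 µL; one replicate is shown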
Bead autofluor: flagged as autofluorescent in microsphere protease counterscreen. 360,000 compounds, 3.1% hits. compound autofluorescence counterscreen, microsphere flow cytometry; hits give high values. fluorescence intensity (test concentration not listed);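 active = at least 3 SD above the mean of all compounds, about 16000 in these data; inconclusive = too few beads counted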;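 also: 100 nL of 1 mM stock went into each well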
BJeLR lethal: kills HRASV12-expressing BJeLR cells; BJeLR (HRASV12) viability, CellTiter-Glo ATP luminescence, 48 h; reference of the scale not given here; inhibition, % (test concentration not listed); 300,000 compounds, 0.17% hits; AID 1554;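 active = replicate mean above 50%; inconclusive = above 50% but judged a plate artefact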;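 also: 50 nL library stock added to about 25 µL; numbers are from one replicate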
Mtb hypoxia rep: reduces hypoxia-regulated biosensor signal in M. tuberculosis; M. tuberculosis hypoxia-regulated fluorescent reporter, fluorescence; fluorescence inhibition, % (no concentration beside the values); 300,000 compounds, 0.1% hits;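 active = 35 to 45% if threefold the growth effect, above 45% if 1.5-fold the growth effect; inactive = the rest, general growth blockers included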;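 also: wells of about 50 µL received 100 nL stock; 0% = vehicle wells and 100% = reference inhibitor wells; whole bacteria with a GFP reporter of the hypoxia response; strong numbers were not always called active; many hits fall short of the cut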
PrP UTR inh: inhibition of PrP 5' UTR reporter expression. inhibition, % (no concentration beside the values). cell-based PrP 5' UTR mRNA reporter, plate reader. 340,000 compounds, 0.35% hits;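 active = every replicate at 50% or more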;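 also: 0 = median of the neutral control wells; tested in H4 reporter cells; numbers are from one replicate; inactives centre near -14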
ugtP null kill: kills S. aureus RN4220 lacking UgtP; S. aureus RN4220 ugtP deletion, OD600 growth, 16 h; some inactives read as strong as hits; growth inhibition, % (test concentration not listed); 330,000 compounds, 0.54% hits;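 active = z-score under -3 and OD600 up to 0.15 on both plates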;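 also: plate controls were untreated wells for no effect and antibiotic for full effect; wells of about 80 µL received 100 nL stock; the first replicate is given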
Mtb hypoxia rep growth: second read-out of Mtb hypoxia rep, no call of its own (marks repeat the call); growth inhibition, %; measured here: M. tuberculosis growth (absorbance);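 0% = vehicle and 100% = reference antibiotic; read after six days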
Numbers without * were called inactive. Compounds as they come; 4.1% or so of the library scored in one or more.

What do the screens show for `CC(=O)Oc1cccc(N2C(=O)C3C(C2=O)C2C=CC3C23CC3)c1` (stereo not given)?
RN4220 kill: 9.2; Bead autofluor: 4340; BJeLR lethal: -4; Mtb hypoxia rep: 17; PrP UTR inh: -21; ugtP null kill: -4; Mtb hypoxia rep growth: 7

How did COc1ccc2c(c1OC)C(=O)N(c1cccc(C)c1)C2=O do in these assays?
RN4220 kill: 2.5; Bead autofluor: 2555; BJeLR lethal: 4; Mtb hypoxia rep: 4; PrP UTR inh: -10; ugtP null kill: 6; Mtb hypoxia rep growth: 7

What do the screens show for `Cc1c(O)ccc(NS(=O)(=O)c2ccccc2)c1C`?
Bead autofluor: 4753; BJeLR lethal: 5; PrP UTR inh: -22

How did Cc1cc(C(F)(F)F)nn1Cc1n[nH]c(=S)n1-c1ccc(F)cc1 do in these assays?
RN4220 kill: 3.5; Bead autofluor: 2404; BJeLR lethal: -5; Mtb hypoxia rep: 9; PrP UTR inh: -24; ugtP null kill: 1; Mtb hypoxia rep growth: 11

How did O=C(CN1CCN(Cc2ccccc2)CC1)NCc1ccccc1Cl do in these assays?
RN4220 kill: 6.5; Bead autofluor: 4507; BJeLR lethal: -3; Mtb hypoxia rep: 7; PrP UTR inh: -2; ugtP null kill: 8; Mtb hypoxia rep growth: 0

What do the screens show for `O=c1[nH]nc(-c2ccc(F)cc2)cc1Cc1ccc(F)cc1`?
RN4220 kill: 2.4; BJeLR lethal: 6; Mtb hypoxia rep: 6; PrP UTR inh: -5; ugtP null kill: 0; Mtb hypoxia rep growth: -1

What do the screens show for `CNCC(O)Cn1c2c(c3ccccc31)CCCC2` (stereo not given)?
RN4220 kill: 0.0; Bead autofluor: 2079; BJeLR lethal: 4; Mtb hypoxia rep: 10; PrP UTR inh: -5; ugtP null kill: 0; Mtb hypoxia rep growth: 11

How did CC(C)CC(NC(=O)c1nc[nH]c1C(=O)NCC(=O)OC(C)(C)C)C(=O)OCc1ccccc1 (stereo not given) do in these assays?
RN4220 kill: 5.2; Mtb hypoxia rep: 7; ugtP null kill: -13; Mtb hypoxia rep growth: 7

Results for O=C1OCC2=C1C(c1ccc(F)cc1)CC(=O)N2c1ccc(F)cc1 (stereo not given) ?
RN4220 kill: 8.9; Bead autofluor: 4588; BJeLR lethal: 4; Mtb hypoxia rep: 8; PrP UTR inh: -5; ugtP null kill: 4; Mtb hypoxia rep growth: 6

How did Cc1ccccc1NC(=O)CSc1nnc2ccc(-c3ccncc3)nn12 do in these assays?
RN4220 kill: 0.9; Bead autofluor: 5767; BJeLR lethal: 0; Mtb hypoxia rep: 3; PrP UTR inh: -27; ugtP null kill: 5; Mtb hypoxia rep growth: 5

Results for CCN(CC)S(=O)(=O)c1ccc(N2CCOCC2)c(NC(=O)C(C)Oc2ccc(F)cc2)c1 (stereo not given) ?
RN4220 kill: 9.1; Bead autofluor: 4156; Mtb hypoxia rep: 14; PrP UTR inh: -36; ugtP null kill: 5; Mtb hypoxia rep growth: 4

Results for N#Cc1c(NC(=O)c2cnccn2)sc2c1CCCC2 ?
RN4220 kill: 6.6; Bead autofluor: 2416; BJeLR lethal: 5; Mtb hypoxia rep: 8; PrP UTR inh: -73; ugtP null kill: -1; Mtb hypoxia rep growth: 12

What do the screens show for `O=C(NCCN1CCOCC1)c1ccc2c(c1)N(Cc1ccccc1F)C(=O)CS2`?
RN4220 kill: -0.1; Bead autofluor: 4012; BJeLR lethal: -3; Mtb hypoxia rep: -83; PrP UTR inh: -14; ugtP null kill: 8; Mtb hypoxia rep growth: -19

What do the screens show for `Cc1cc(C)c2nc(SCC(=O)N3CCCCC3)c(C#N)cc2c1`?
RN4220 kill: 1.5; Bead autofluor: 5161; BJeLR lethal: 2; PrP UTR inh: -17; ugtP null kill: 5

Results for Fc1ccc(C2CCCN2Cc2nc(Cc3ccccc3)no2)cc1 (stereo not given) ?
RN4220 kill: -1.1; Bead autofluor: 4183; BJeLR lethal: 14; Mtb hypoxia rep: 11; PrP UTR inh: -15; ugtP null kill: 4; Mtb hypoxia rep growth: 5

What do the screens show for `CC(=NNC(=O)c1ccc(O)cc1)c1ccc2c(c1)Nc1ccccc1S2`?
RN4220 kill: 2.7; Mtb hypoxia rep: 2; ugtP null kill: -25; Mtb hypoxia rep growth: -3

How did Cc1ccc(OCCC(=O)OCC(=O)Nc2ccc3[nH]c(=O)[nH]c3c2)cc1 do in these assays?
RN4220 kill: 3.3; Bead autofluor: 5355; BJeLR lethal: 9; Mtb hypoxia rep: -2; PrP UTR inh: -35; ugtP null kill: -1; Mtb hypoxia rep growth: 3

How did O=C(NCCN1CCOC1=O)C1CCC(=O)N(CCc2ccc(Cl)cc2)C1 (stereo not given) do in these assays?
RN4220 kill: -0.6; Bead autofluor: 5610; BJeLR lethal: -5; Mtb hypoxia rep: 2; PrP UTR inh: -1; ugtP null kill: 2; Mtb hypoxia rep growth: 1

Results for Cc1ccc(Cn2c(=N)n(CC(=O)c3ccc([N+](=O)[O-])cc3)c3ccccc32)cc1 ?
RN4220 kill: -4.2; Bead autofluor: 2362; BJeLR lethal: 4; Mtb hypoxia rep: -3; PrP UTR inh: -22; ugtP null kill: -30; Mtb hypoxia rep growth: -3

How did Cc1cccc(-n2cc(-c3ccccc3)[nH]c2=S)c1 do in these assays?
RN4220 kill: 1.0; Bead autofluor: 3548; BJeLR lethal: -2; Mtb hypoxia rep: 4; PrP UTR inh: -52; ugtP null kill: 6; Mtb hypoxia rep growth: 1

How did COc1ccc(-c2cccc(NS(=O)(=O)c3cccc([N+](=O)[O-])c3)c2)nn1 do in these assays?
RN4220 kill: 2.3; Bead autofluor: inconclusive; BJeLR lethal: -5; Mtb hypoxia rep: 8; PrP UTR inh: -15; ugtP null kill: 4; Mtb hypoxia rep growth: -1

Results for Cc1cc2nc(C3CCCN(C(=S)Nc4ccccc4)C3)[nH]c2cc1C (stereo not given) ?
RN4220 kill: -5.2; Bead autofluor: 12683; BJeLR lethal: -2; Mtb hypoxia rep: 1; PrP UTR inh: -10; ugtP null kill: -1; Mtb hypoxia rep growth: -1

How did CCOC(=O)c1ccc(NC(=O)CSc2nnc(COc3ccccc3OC)n2CC)cc1 do in these assays?
RN4220 kill: -7.1; Bead autofluor: 2817; BJeLR lethal: 0; Mtb hypoxia rep: 2; PrP UTR inh: -15; ugtP null kill: -8; Mtb hypoxia rep growth: 9

Results for CCC1CCc2sc(C(=O)N(C)CC(=O)Nc3cccc(OC)c3)cc2C1 (stereo not given) ?
RN4220 kill: 3.2; Bead autofluor: 7768; Mtb hypoxia rep: 7; PrP UTR inh: -27; ugtP null kill: 0; Mtb hypoxia rep growth: -1

What do the screens show for `O=S(=O)(Nc1nc2ccccc2nc1Nc1ccc2c(c1)OCO2)c1ccc(F)cc1`?
Bead autofluor: 8851; BJeLR lethal: 16; PrP UTR inh: -14

How did Cc1ccc(C(=O)ON=Cc2c(N3CCOCC3)n(C)c3ccccc23)cc1 do in these assays?
RN4220 kill: -3.1; Mtb hypoxia rep: 25; ugtP null kill: 14; Mtb hypoxia rep growth: 36

Results for Cc1cc(C)c(C(=O)COC(=O)c2cccc(S(=O)(=O)NCc3ccccc3)c2)cc1C ?
RN4220 kill: 1.9; Bead autofluor: 2251; BJeLR lethal: 8; Mtb hypoxia rep: 1; PrP UTR inh: -11; ugtP null kill: -20; Mtb hypoxia rep growth: 6

How did COc1cccc2cc(C(=O)Nc3cc(C)cc(C)c3)c(=NNS(=O)(=O)c3ccccc3)oc12 do in these assays?
RN4220 kill: 0.3; Mtb hypoxia rep: 14; ugtP null kill: 9; Mtb hypoxia rep growth: 6

How did Cc1cc[n+]2cc(-c3cccc([N+](=O)[O-])c3)c(-c3cccc([N+](=O)[O-])c3)cc2c1 do in these assays?
RN4220 kill: 1.6; Bead autofluor: 7178; BJeLR lethal: 2; Mtb hypoxia rep: 2; PrP UTR inh: -61; ugtP null kill: -3; Mtb hypoxia rep growth: 4

What do the screens show for `COc1ccccc1C1(O)CCN(CC(=O)Nc2c(C)nn(C)c2C)CC1`?
RN4220 kill: 7.5; Bead autofluor: 5572; BJeLR lethal: -5; Mtb hypoxia rep: 10; PrP UTR inh: -4; ugtP null kill: 7; Mtb hypoxia rep growth: 0

Results for O=C(Nc1nnc(-c2ccco2)s1)C1CCN(S(=O)(=O)c2ccc(Cl)cc2)CC1 ?
RN4220 kill: -3.8; Bead autofluor: 5238; BJeLR lethal: -2; Mtb hypoxia rep: -1; PrP UTR inh: 6; ugtP null kill: -13; Mtb hypoxia rep growth: 19

Results for CCOc1ccc(S(=O)(=O)Nc2ccc3c(c2)OCO3)cc1 ?
RN4220 kill: 3.3; Bead autofluor: 3314; BJeLR lethal: 4; Mtb hypoxia rep: 6; PrP UTR inh: -14; ugtP null kill: 13; Mtb hypoxia rep growth: -5

How did CCS(=O)(=O)N1CCC(C(=O)Oc2ccc(Cl)cc2)CC1 do in these assays?
RN4220 kill: 5.1; Bead autofluor: 3814; BJeLR lethal: -3; Mtb hypoxia rep: 6; PrP UTR inh: -29; ugtP null kill: 2; Mtb hypoxia rep growth: 4

What do the screens show for `Cn1cccc1C1NC(=O)c2c(sc3c2CCC(C(C)(C)C)C3)N1` (stereo not given)?
RN4220 kill: 0.4; Bead autofluor: 8568; BJeLR lethal: -2; Mtb hypoxia rep: -7; PrP UTR inh: -14; ugtP null kill: -8; Mtb hypoxia rep growth: -5

Results for CC(C)(C)CC(=O)Nc1nnc(CCc2ccccc2)s1 ?
RN4220 kill: 2.6; Bead autofluor: 3321; BJeLR lethal: 1; Mtb hypoxia rep: 0; PrP UTR inh: -11; ugtP null kill: -5; Mtb hypoxia rep growth: -5

How did CC1=C(C(=O)Nc2ccccc2C)C(c2ccc(C)o2)N2C(=O)CSC2=N1 (stereo not given) do in these assays?
RN4220 kill: -6.3; Bead autofluor: 20714*; BJeLR lethal: 1; Mtb hypoxia rep: -6; PrP UTR inh: 2; ugtP null kill: -26; Mtb hypoxia rep growth: 0

Results for CCc1nc(OCc2ccccc2)c2sc3nc4c(cc3c2n1)COC(C)(C)C4 ?
RN4220 kill: -3.0; Bead autofluor: 21172*; BJeLR lethal: -9; Mtb hypoxia rep: 3; PrP UTR inh: -20; ugtP null kill: 2; Mtb hypoxia rep growth: 2

Results for Cn1c(O)c(N=NC(=O)CNC(=O)c2ccccc2)c2cc(Br)ccc21 ?
RN4220 kill: -1.7; Bead autofluor: 4527; BJeLR lethal: -2; Mtb hypoxia rep: -1; PrP UTR inh: -10; ugtP null kill: 17; Mtb hypoxia rep growth: -16

What do the screens show for `O=C(NC1CCCCCCC1)c1ccc(F)cc1`?
RN4220 kill: 0.5; Bead autofluor: 3368; BJeLR lethal: 4; PrP UTR inh: -73; ugtP null kill: 5

What do the screens show for `Cc1ccc2cc(C#N)c(NCc3ccccc3)nc2c1`?
RN4220 kill: 1.7; Bead autofluor: 4391; Mtb hypoxia rep: 12; PrP UTR inh: -34; ugtP null kill: 7; Mtb hypoxia rep growth: 9

What do the screens show for `N#CC(C(=O)NCCc1ccccc1)c1nc2ccccc2nc1N1CCCCC1` (stereo not given)?
Bead autofluor: 2547; BJeLR lethal: -11; PrP UTR inh: -2

Random excerpt: 5 records from the list, in no set order.
Results for Cn1c(O)c(N=NC(=O)CNC(=O)c2ccccc2)c2cc(Br)ccc21 ?
RN4220 kill: -1.7; Bead autofluor: 4527; BJeLR lethal: -2; Mtb hypoxia rep: -1; PrP UTR inh: -10; ugtP null kill: 17; Mtb hypoxia rep growth: -16

What do the screens show for `N#CC(C(=O)NCCc1ccccc1)c1nc2ccccc2nc1N1CCCCC1` (stereo not given)?
Bead autofluor: 2547; BJeLR lethal: -11; PrP UTR inh: -2

What do the screens show for `Cc1ccc2cc(C#N)c(NCc3ccccc3)nc2c1`?
RN4220 kill: 1.7; Bead autofluor: 4391; Mtb hypoxia rep: 12; PrP UTR inh: -34; ugtP null kill: 7; Mtb hypoxia rep growth: 9

Results for CCc1nc(OCc2ccccc2)c2sc3nc4c(cc3c2n1)COC(C)(C)C4 ?
RN4220 kill: -3.0; Bead autofluor: 21172*; BJeLR lethal: -9; Mtb hypoxia rep: 3; PrP UTR inh: -20; ugtP null kill: 2; Mtb hypoxia rep growth: 2

What do the screens show for `O=C(NC1CCCCCCC1)c1ccc(F)cc1`?
RN4220 kill: 0.5; Bead autofluor: 3368; BJeLR lethal: 4; PrP UTR inh: -73; ugtP null kill: 5
